Screening results as filed in PubChem.
GALR2 ag = GALR2 (human) receptor agonism. GALR2-expressing cells, agonist activation read-out. activation, %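 (tested at 5 µM)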. O43603. 0.48% of 140,000 active. AID 803;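 active = above mean plus 3 SD of all compounds, about 5% in these data, not always enough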;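 note: 0% = vehicle buffer wells and 100% = reference agonist at full effect; tested in CHO reporter cells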
Target sequence (O43603 whole entry, looked up): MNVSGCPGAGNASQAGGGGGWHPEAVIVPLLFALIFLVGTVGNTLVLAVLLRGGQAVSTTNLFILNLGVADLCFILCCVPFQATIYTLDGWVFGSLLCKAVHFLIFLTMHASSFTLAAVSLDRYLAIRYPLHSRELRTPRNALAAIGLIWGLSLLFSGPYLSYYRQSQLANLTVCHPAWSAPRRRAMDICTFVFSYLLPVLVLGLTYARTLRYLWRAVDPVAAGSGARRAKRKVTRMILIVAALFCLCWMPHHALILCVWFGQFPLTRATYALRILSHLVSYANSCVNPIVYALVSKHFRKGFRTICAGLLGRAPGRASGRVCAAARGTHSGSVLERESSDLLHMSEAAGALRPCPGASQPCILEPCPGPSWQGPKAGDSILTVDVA
PKD1 inh = PKD1 (human) kinase inhibition | PKD1 kinase fluorescence polarization assay | AID 797 | 0.056% of 200,000 active | inhibition, %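 (about 10 µM by stock and volumes)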;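 active = inhibition of 50% or more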;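 note: controls were vehicle for no effect and a reference inhibitor for full effect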
HSV replic up = HSV replication enhancement | HSV replication augmentation in cells, fold increase | maximum fold increase | 0.005% of 220,000 active | AID 1956;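 active = peak rise of 1.5-fold or more in the series; tested in PC3 cells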;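 note: first round at 10 µM; read as green reporter fluorescence; hits show the peak of a series up to 25 µM; 1 = signal of infected wells without compound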
Insulin prom inh = TRM-6 insulin promoter activity inhibition; TRM-6 cells (human fetal islet line), insulin promoter-eGFP reporter, imaging; reporter expression induced with tamoxifen; inhibition, % at 2 µM; 0.9% of 130,000 active;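 active = inhibition above the mean plus 3 SD, with well images judged a real hit on visual review, cut at about 60% in these data, passing the limit was not always enough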
RGS16-Gao HTS = regulators of human RGS16-Galphao interaction | O15492+P09471 | bead-based flow cytometry RGS16-Galphao binding, fluorescence; actives lie on both sides | binding response (% of control), % at 10 µM | 0.38% of 220,000 active;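 active = below 25% or above 175%, edge rows of some plates excepted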;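 note: Galphao activated by GDP with aluminum fluoride before binding; 100% = wells without compound and 0% = beads without RGS; some results beyond the cut were filed as inactive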
Target sequence (O15492 whole entry, looked up): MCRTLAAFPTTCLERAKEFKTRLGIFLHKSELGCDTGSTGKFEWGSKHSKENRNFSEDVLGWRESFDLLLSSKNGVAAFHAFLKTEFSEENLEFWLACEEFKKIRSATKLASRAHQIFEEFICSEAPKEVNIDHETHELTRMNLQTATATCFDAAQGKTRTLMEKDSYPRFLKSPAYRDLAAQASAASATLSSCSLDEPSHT
Target sequence (P09471 whole entry, looked up): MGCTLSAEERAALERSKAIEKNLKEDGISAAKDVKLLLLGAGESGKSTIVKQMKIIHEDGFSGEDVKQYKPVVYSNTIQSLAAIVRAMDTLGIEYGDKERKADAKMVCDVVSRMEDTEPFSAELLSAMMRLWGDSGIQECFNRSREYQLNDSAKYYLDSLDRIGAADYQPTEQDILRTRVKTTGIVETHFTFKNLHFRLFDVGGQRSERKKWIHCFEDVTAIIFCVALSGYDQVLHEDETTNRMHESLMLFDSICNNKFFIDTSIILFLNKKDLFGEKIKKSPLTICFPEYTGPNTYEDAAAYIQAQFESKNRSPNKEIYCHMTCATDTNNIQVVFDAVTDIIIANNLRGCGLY
Insulin prom inh cell count = recorded beside Insulin prom inh, whose call it bears; normalized cell count, %; measured here: cell count, toxicity; reference of the scale not given here;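 cells exposed to compound for 48 h; stained nuclei by imaging scaled within each plate; lower means fewer cells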
HSV replic up primary fold = second read-out of HSV replic up, no call of its own (marks repeat the call); fold increase; compound at 10 µM; measured here: primary screen fold increase 10 uM; tested in PC3 cells;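 GFP signal in the first replicate; 1 = infected wells without compound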
* = called active by the depositor; i = inactive; / = no result given.

SMILES	GALR2 ag	PKD1 inh	HSV replic up	HSV replic up primary fold	Insulin prom inh	Insulin prom inh cell count	RGS16-Gao HTS
S=C(NCCCN1CCOCC1)NCCCN1CCOCC1	-3.0	6	i	1	-23	53	128
CCOC(=O)C(/C=C(\C#N)C(=O)OCC)=C(/N)N1CCN(c2ccccc2)CC1	0.3	-3	i	0.93	7	88	99
CCOC(=O)c1cc2c(ccn2C)n1CC(=O)N1C(C)CCCC1C (stereo not given)	/	-7	i	1.1	/	/	101
CCOc1ccc(NC(=O)Nc2ccc(Cc3ccncc3)cc2)cc1	/	/	i	0.65	/	/	100
Cn1c(=O)c2c(ncn2CCC(=O)N/N=C/c2cccnc2)n(C)c1=O	/	/	i	1	/	/	98
COc1ccc(NC(=O)c2cc(S(=O)(=O)N3CCCCC3)ccc2N2CCCCC2)cn1	-0.8	7	i	0.83	0	110	93
CCCCCCCC[n+]1cccc2c3ccccc3ccc21	/	6	i	0.62	-57	63	106
Cc1sc(NC(=O)c2ccc(=O)n(C)n2)nc1-c1ccccc1	/	-1	i	1.1	/	/	98
CCC(c1nnnn1Cc1cccs1)N1CCN(C2CCCC2)CC1 (stereo not given)	-3.3	-1	i	1	-10	87	104
COc1ccc(CN2C(=O)CCC2(C)C(=O)NC2CCCCCC2)cc1 (stereo not given)	-1.9	-10	i	0.91	/	/	103
Clc1ccc2c(Cl)c(-c3nnc(-c4ccccc4)o3)sc2c1	-0.8	1	/	/	59	131	/
COc1ccc(/C=C2\SC(=S)N(CC(=O)NCCO)C2=O)cc1	/	-3	i	1	/	/	101
CCCCNC(=S)NC(=O)c1ccc([N+](=O)[O-])cc1	-2.1	-6	i	0.73	/	/	98
COCCCNC(=O)CCSc1ccc(Cl)cc1	-1.8	-5	i	1	/	/	93
CCOc1ccccc1NC(=S)NCCc1ccccc1	/	-4	i	1	/	/	102
Cc1cc(C)nc(NC(=O)CCC2CCCC2)c1	-1.4	-2	i	0.89	13	101	104
Cc1ccc(C2Nc3ccccc3C(=O)N2CCN2CCNC2=O)cc1 (stereo not given)	/	/	i	0.97	/	/	97
O=Nc1c(-c2cccc([N+](=O)[O-])c2)nc2ncccn12	/	/	i	0.96	/	/	88
CCCCn1cnc2c1c(=O)n(CC(=O)c1cc(C)n(C)c1C)c(=O)n2CC(C)C	-2.3	-5	i	1	/	/	107
O=C(Nc1ccc(Cl)cc1C(F)(F)F)c1ccc(Cl)cc1	-0.3	0	/	/	23	73	72
O=C(CN1CCCCC1)N1CCN(S(=O)(=O)c2ccccc2)C1	/	-3	i	1	/	/	101
Cc1cc(C)nc(SCc2cc(=O)c(OC(=O)c3ccc(Br)o3)co2)n1	-1.8	2	i	0.92	37	186	99
NC(=O)c1c(NC(=O)c2cccnc2Cl)sc2c1CCCC2	-1.1	-8	i	0.89	-13	135	109
Cc1ccc(S(=O)(=O)N2C(=O)CCC2C(=O)Nc2ccc3c(c2)OCCO3)cc1 (stereo not given)	-2.1	2	i	0.89	60	137	102
Cc1ccnc(NC(=O)COc2ccc(Cl)cc2)n1	/	/	i	0.89	/	/	99
(continued)
SMILES	GALR2 ag	PKD1 inh	HSV replic up	HSV replic up primary fold	Insulin prom inh	Insulin prom inh cell count	RGS16-Gao HTS
CCOC(=O)C1(Cc2cccc(F)c2)CCN(Cc2cnc(C)s2)CC1	/	-1	i	1.2	/	/	98
Cc1ccccc1C(=O)NN1CCOCC1	0.0	-8	i	1.1	17	86	104
COc1ccc(Nc2cc(C(=O)NCc3ccco3)c3ccccc3n2)c(OC)c1	0.1	7	i	0.98	-33	135	93
Cc1ccc(-n2nc(CC#N)c(C#N)c2N)cc1Cl	0.1	-4	i	0.93	/	/	102
CN(C)C(=S)NC(=O)C12CC3(C)CC(C)(CC(C)(C3)C1)C2	/	/	i	0.89	/	/	94
COc1ccccc1CNC(=S)Nc1cc(C)ccc1C	/	10	i	0.99	/	/	101
C=CCNC(=O)c1onc(CSc2ccncc2)c1C(=O)NCC=C	/	/	i	0.7	/	/	82
CN(C1CCS(=O)(=O)C1)S(=O)C12CC3CC(CC(C3)C1)C2 (stereo not given)	-1.2	-3	i	0.99	0	115	97
COC(=O)c1[nH]c2ccc(C)cc2c1NC(=O)CN1CCN(Cc2ccccc2)CC1	-1.3	-7	i	0.87	12	101	99
O=C(NCc1ccccn1)C(C(=O)c1cccc([N+](=O)[O-])c1)n1cc(Cl)ccc1=O (stereo not given)	/	-5	i	1	-93	22	106
Cn1c(=O)[nH]c(=O)c2c1nc(N1CCc3ccccc3C1)n2CCSc1nc2ccccc2s1	0.2	3	i	0.81	-16	73	97
CCCOc1nc2c(c(=O)n(C)c(=O)n2C)n1CC	-0.8	-5	/	/	/	/	/
OCCOCCOCCn1c2ccccc2c2ccccc21	-2.5	-2	i	0.98	/	/	107
O=[N+]([O-])c1cc(-c2ccc(C(=S)N3CCOCC3)o2)ccc1Cl	/	-4	i	1.1	-5	91	101
COc1ccc(COc2ccc(C3C(S(=O)(=O)c4ccccc4)CON3C)cc2OC)cc1 (stereo not given)	/	-3	i	0.89	0	107	99
O=C(O)CC1NC(=O)N(C2CCCCC2)C1=O (stereo not given)	/	7	i	1	-25	104	101
O=C(O)CC(NC(=O)c1ccc2c(c1)OCO2)c1cccc([N+](=O)[O-])c1 (stereo not given)	/	-7	i	0.97	-464	70	109
O=C(COc1ccccc1[N+](=O)[O-])OC1CCS(=O)(=O)C1 (stereo not given)	/	0	i	0.98	-41	76	94
COc1ccc(N(C)C(=O)c2oc(=O)c3ccccc3c2-c2ccc(C)cc2)c(OC)c1	/	/	i	0.94	/	/	95
CCOC(=O)C1=C(N)OC2=C(C(=O)CC(C)(C)C2)C1c1ccc(C)s1 (stereo not given)	/	-8	i	0.99	-64	123	108
CCC1(O)c2ccccc2-c2ncccc21 (stereo not given)	-0.3	-5	i	1	44	308	96
Cc1cc([N+](=O)[O-])nn1CC(=O)Nc1nccs1	-0.3	-3	i	0.81	32	124	104
CCOC(=O)c1c(N)sc(C(=O)N2CCCCCC2)c1C	-0.6	-8	i	0.87	/	/	108
O=c1oc2ccccc2c(O)c1Cc1cc(Cl)c2cccnc2c1O	/	/	i	0.99	/	/	100
COCCn1c(C)cc(C2=NNC(=Nc3ccc(Cl)cc3Cl)SC2)c1C	0.3	-8	i	1	0	53	102
Next section
SMILES	GALR2 ag	PKD1 inh	HSV replic up	HSV replic up primary fold	Insulin prom inh	Insulin prom inh cell count	RGS16-Gao HTS
O=C(NCCc1ccccc1)C(c1cccs1)N(C(=O)c1csnn1)C1CC1 (stereo not given)	-2.1	-8	i	0.84	/	/	110
COc1ccc(-c2nnn(CC(=O)N(CCCN3CCOCC3)C(C(=O)NC3CCCC3)c3ccc(C)o3)n2)cc1 (stereo not given)	/	1	i	0.91	/	/	164
O=C(COC(=O)c1ccc2ncsc2c1)Nc1ncc(Cl)cc1Cl	-1.2	1	i	1.1	20	71	126
COCCn1c(SCC(=O)Nc2ccc3[nH]c(=O)[nH]c3c2)nc2ccccc2c1=O	/	/	i	1	/	/	102
COc1ccc(C2CC(c3cccs3)Nc3nnnn32)cc1 (stereo not given)	/	-1	i	0.94	/	/	101
CSc1nc2c(c(=O)n1-c1ccc(F)cc1)SCC2	-2.6	-6	i	0.95	-47	162	103
COc1ccc(-c2nc(/C=C3\C(C)=Nc4ccccc43)c(O)o2)cc1	/	5	i	0.96	/	/	103
O=C(O)/C=C/C(=O)NCCc1ccc(Cl)cc1	/	/	i	0.98	/	/	100
CCC1Oc2ccccc2N(CC(=O)NCCCN2CCCCC2CC)C1=O (stereo not given)	-2.7	-7	i	1.1	/	/	219
Cc1ccccc1-c1nnc(-c2ccccc2)o1	-1.3	0	i	0.92	28	125	89
CC(=O)N(C(C)=O)c1ncc2c([nH]c3ccccc32)c1C#N	-3.3	-1	i	0.9	11	100	99
COc1ccccc1C(=O)NNC(=O)c1sccc1-n1cccc1	/	-4	i	1	-138	89	100
CCCCC(O)(CCN1CCOCC1)c1ccc(Cl)cc1 (stereo not given)	-1.5	-2	i	0.88	-50	90	106
COc1ccc(-n2c(=S)[nH]c3cc(C(=O)NCCCN4CCCC4=O)ccc3c2=O)cc1OC	0.5	-7	i	0.89	17	85	105
CCS(=O)(=O)C1=NSC2=NC(=O)/C(=C\c3cc(C)n(-c4cccc(OC)c4)c3C)C(=N)N21	/	6	i	0.96	44	78	102
CCCC1CCC(=NNC(=O)OC(C)(C)C)CC1 (stereo not given)	-0.4	-8	i	1.1	/	/	102
CCc1ccc(NC(=O)C(=O)N/N=C(\C)CC(=O)Nc2ccc(OC)cc2)cc1	/	-6	i	1	-33	108	97
COc1ccc(CCC(C)NCC2CCCCC2)cc1 (stereo not given)	-0.5	6	i	0.91	/	/	105
CCOC(=O)c1[nH]nc(N)c1NC(=O)c1ccc(Cl)cc1Cl	-2.6	-6	i	0.9	10	135	106
Cc1[nH]c2ccc(C(=O)NCC(C)(C)N3CCOCC3)cc2c1C	/	-5	i	0.83	28	120	101
O=C(COC(=O)c1cc(S(=O)(=O)N2CCCCC2)ccc1N1CCOCC1)NC1CCCCC1	-2.6	-14	i	0.76	/	/	102
Cc1[nH]c2ccc(C(=O)OCCN(C)C)cc2c1C	-2.6	-4	i	0.88	-5	66	101
N=c1sccn1CC(=O)NCCc1ccc(Cl)cc1	-2.8	3	i	0.89	/	/	100
CCCCn1c(CCC(=O)O)nc2c1c(=O)[nH]c(=O)n2CCC	-2.2	-8	i	0.98	-4	139	101
OCCC1CN(Cc2c(O)ccc3ccccc23)CCN1CCc1ccccc1 (stereo not given)	/	-4	i	0.97	11	101	102

Results in PKD1 inh, for 3 of the compounds above:
SMILES | PKD1 inh
N=c1sccn1CC(=O)NCCc1ccc(Cl)cc1 | 3
CCCCn1c(CCC(=O)O)nc2c1c(=O)[nH]c(=O)n2CCC | -8
OCCC1CN(Cc2c(O)ccc3ccccc23)CCN1CCc1ccccc1 (stereo not given) | -4

The list goes on:
SMILES	GALR2 ag	PKD1 inh	HSV replic up	HSV replic up primary fold	Insulin prom inh	Insulin prom inh cell count	RGS16-Gao HTS
CCOC(=O)C(=O)N/N=C/c1cccc(Br)c1	/	/	i	0.97	/	/	100
COc1ccc(C2C(C#N)=C(N)Oc3cc(C)n(Cc4ccncc4)c(=O)c32)cc1 (stereo not given)	-1.3	-2	i	1.1	/	/	103
C=CC[N+](C)(C)CCN1C(=O)C2C(c3ccccc3)C=CC(c3ccccc3)C2C1=O (stereo not given)	/	-3	i	0.92	/	/	104
COC(=O)c1cc(NC2c3ncccc3C(=O)N2Cc2ccccc2)cc(C(=O)OC)c1 (stereo not given)	-0.7	-2	i	0.85	21	58	100
O=C(COc1ccc([N+](=O)[O-])cc1)N(Cc1ccccc1)Cc1ccccc1	-1.1	-5	i	0.95	-56	122	111
CCOc1ccc(NC(=O)N2CCC(C(=O)c3ccc(F)cc3)CC2)cc1	-1.8	2	i	0.79	-11	34	103
O=C(/C=C/c1cccc([N+](=O)[O-])c1)NCCSc1ccccc1	-2.0	-4	i	0.88	-16	93	105
O=Cc1cn(CC(=O)N2CCOCC2)c2ccccc12	-1.4	-4	i	1.2	-411	75	44
Cc1ccc(NC(=O)COC(=O)c2ccc3c(c2)NC(=O)C2CCCN32)cc1C (stereo not given)	-3.5	-3	i	1	/	/	86
O=C(COC(=O)[C@@H]1CCCN1S(=O)(=O)c1ccccc1F)c1ccccc1	/	3	i	1.2	/	/	81
COC(=O)C[N+](C)(C)C/C=C\c1ccccc1	/	1	i	0.97	-5	131	102
O=C(Nc1cccc(O)c1)c1noc2c1CCCCC2	-1.1	3	i	1.1	45	95	/
CC1CCN(S(=O)(=O)c2cccc(C(=O)N(C)C3CCS(=O)(=O)C3)c2)CC1 (stereo not given)	-0.8	-2	i	0.97	23	138	100
Cc1cccc(/C=C/c2nc3ccccc3c(=O)[nH]2)c1	/	-2	i	0.68	/	/	101
CC(C)(C)c1ccc(/C=C/C(=O)NC2=NCCS2)cc1	-1.1	-14	i	0.81	-14	29	105

6 structures already listed, sorted by SMILES length, descending.
SMILES	GALR2 ag	PKD1 inh	HSV replic up	HSV replic up primary fold	Insulin prom inh	Insulin prom inh cell count	RGS16-Gao HTS
Cn1c(=O)[nH]c(=O)c2c1nc(N1CCc3ccccc3C1)n2CCSc1nc2ccccc2s1	0.2	3	i	0.81	-16	73	97
Cc1ccc(NC(=O)COC(=O)c2ccc3c(c2)NC(=O)C2CCCN32)cc1C (stereo not given)	-3.5	-3	i	1	/	/	86
O=C(COc1ccccc1[N+](=O)[O-])OC1CCS(=O)(=O)C1 (stereo not given)	/	0	i	0.98	-41	76	94
CCOC(=O)c1c(N)sc(C(=O)N2CCCCCC2)c1C	-0.6	-8	i	0.87	/	/	108
COC(=O)C[N+](C)(C)C/C=C\c1ccccc1	/	1	i	0.97	-5	131	102
Cc1ccnc(NC(=O)COc2ccc(Cl)cc2)n1	/	/	i	0.89	/	/	99
